Screens from PubChem.
gsp antag – gsp mutant antagonism | 340,000 compounds, 0.4% hits | AID 624288 | gsp-mutant cells, cAMP HTRF, 30 min; control for the full effect not named in the record | Potency, µM (titrated, usually from 76.9 µM), for inactives: at the top dose activity change, negative = inhibition, most hits filed as inhibitors; active = falling curve of any shape with a large fitted effect; inconclusive = falling curve, mostly with a smaller effect; inactive = flat or rising curve; cell line not stated here;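 also: intracellular cAMP measured with PDE inhibitor Ro 20-1724 present during compound exposure; potency is read from the fitted curve at half-maximal effect; % is scaled to controls: 0 for no effect and ±100 for the full control effect; nearly all actives have a fitted effect of over 65% in size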
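Cells in G418 medium, seeded 16-24 h, 37C; buffer exchange to DPBS + 1 mM CaCl2, 0.5 mM MgCl2, 0.05% BSA; cpds in DMSO + […] (300 uM stock), 30 min 37C; HTRF cAMP detection.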
TRPML1 ag – agonists of human TRPML1 channel. Q9GZU1. TRPML1-expressing cells, Ca2+ dye fluorescence, FDSS; host cell line not named in the record; reference of the full effect not given here. activation, % (no concentration beside the values). 410,000 compounds, 0.12% hits. AID 624414; in the data active = activation above about 50%; inconclusive = about 30% to 50%; inactive = below about 30%; also: 0% is about no effect; the text of the record puts the active cut at 80%
Target sequence (Q9GZU1 whole entry, looked up): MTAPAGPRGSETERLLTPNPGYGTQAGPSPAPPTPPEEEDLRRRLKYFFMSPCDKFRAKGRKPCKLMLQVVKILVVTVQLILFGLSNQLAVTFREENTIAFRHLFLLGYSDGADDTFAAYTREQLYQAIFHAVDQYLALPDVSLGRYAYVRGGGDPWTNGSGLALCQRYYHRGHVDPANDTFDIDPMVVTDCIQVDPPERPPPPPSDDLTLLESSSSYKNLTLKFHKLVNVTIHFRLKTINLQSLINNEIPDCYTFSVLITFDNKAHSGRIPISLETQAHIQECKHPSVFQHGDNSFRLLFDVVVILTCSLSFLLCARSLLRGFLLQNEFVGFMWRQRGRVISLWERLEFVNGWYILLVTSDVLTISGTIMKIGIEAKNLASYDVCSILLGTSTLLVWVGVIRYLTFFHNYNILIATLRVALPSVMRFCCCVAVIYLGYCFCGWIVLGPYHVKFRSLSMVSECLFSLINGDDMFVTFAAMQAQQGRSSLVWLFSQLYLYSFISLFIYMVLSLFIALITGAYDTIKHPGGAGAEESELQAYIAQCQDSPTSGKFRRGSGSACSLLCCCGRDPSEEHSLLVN
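In this qHTS format, compounds were pin-transferred onto Ca8-dye-loaded TRPML1-DL cells induced with Tet overnight, and intracellular Ca2+ fluorescence was recorded kinetically for 110 s after a 10 s baseline. A subsequent 4uM final 54-4 (EC80) addition followed by a second 110 s read served as the antagonist phase.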
ClpP mod – qHTS Assay for Activators of ClpP; 340,000 compounds, 1.9% hits; Potency, µM (top dose mostly 57.5 µM), for the others: top-dose activity change, negative = active; ATP-dependent Clp protease proteolytic subunit (Bacillus subtilis (strain 168)), P80244; purified B. subtilis ClpP, FRET peptide cleavage, 20 min; active = well fitted falling curve with a large enough effect; inconclusive = small, poorly fitted or top-dose-only effect; inactive = no such curve, though single readings can be large or run the other way; also: potency is read from the fitted curve at half-maximal effect; the source files actives as falling curves though it sought activators and does not explain the sign; nearly all actives have a fitted effect of over 65% in size; many hits overshoot -100%
Target sequence (P80244 whole entry, looked up): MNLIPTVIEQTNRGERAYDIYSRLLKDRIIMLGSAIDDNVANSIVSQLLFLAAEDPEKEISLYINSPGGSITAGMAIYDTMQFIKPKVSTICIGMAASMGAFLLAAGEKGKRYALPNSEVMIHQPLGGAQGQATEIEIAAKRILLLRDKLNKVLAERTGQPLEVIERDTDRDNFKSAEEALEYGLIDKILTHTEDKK
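FRET quenching reversal measured ClpP activation: 10 microg/mL B. subtilis ClpP at pH 8 with the FRET-FV decapeptide, read at 430 nm after 320 nm excitation. The 20-min minus 0-min signal was scaled between DMSO/no-enzyme wells and ADEP (5.8 microM final).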
Menin-MLL FL inh – inhibitors of human menin-MLL interaction, wild-type MLL peptide | Fluorescence polarization, fluorescein-MLL peptide displacement from menin | FP activity change, % at 61.4 µM | 290,000 tested, under 10 active | AID 1766; inconclusive = falling polarisation curve, or a change in total fluorescence; inactive = total fluorescence flat and polarisation flat or rising; no compound was filed as active; the % refers to the polarisation; negative = inhibition;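 also: % of control where 0% means no effect; inhibitors lower the polarisation; unlabelled MLL peptide was the positive control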
TRPML1 blocker – human mucolipin-1 channel inhibition | Q9GZU1 | TRPML1-inducible cells, Ca2+ dye fluorescence, FDSS; hits give low values; inhibition of EC80 agonist-evoked calcium signal | activity change, negative = inhibition, % (no concentration beside the values) | 390,000 compounds, 0.02% hits | AID 624415; in the data active means activity change below about -50%; inconclusive means about -30% to -50%; inactive means above about -30%;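 also: stimulus is agonist 54-4 at its EC80 concentration; % is scaled to controls: 0 for no effect and ±100 for the full control effect; compound concentration not given in the record; the text of the record puts the active cut at -80%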
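Calcium fluorescence in TRPML1-DL cells induced overnight with Tet: a 110 s read after compound pin addition, then a 110 s antagonist read after challenge with 54-4 at 4 uM final (EC80).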
gsp agonist – agonists of gsp mutant (McCune-Albright syndrome); 340,000 compounds, 0.13% hits; gsp mutant cells, cAMP HTRF, 30 min; control for the full effect not named in the record; Potency, µM (doses to about 76.9 µM), inactives show top-dose activation (cAMP increase), hits mostly activators; AID 624287; active = well fitted activation curve with a large enough effect; inconclusive = small, poorly fitted or top-dose-only effect, or another doubt; inactive = no such curve, though single readings can be large or run the other way; cell line not stated here;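 also: phosphodiesterase inhibitor Ro 20-1724 added with compounds to block cAMP breakdown; potency is read from the fitted curve at half-maximal effect; nearly all actives have a fitted effect of over 60% in size; about a fifth of the inactives were tested at one dose only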
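Cells stably selected in G418 were plated at 2000/well, grown 16-24 hr, then given compounds in DMSO with the PDE inhibitor […] (300 uM solution added) for 30 min at 37C; cAMP was read by HTRF.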
* = called active by the depositor; ? = inconclusive; nt = no result given; & = joins results of further samples; [ ] = dose if it differs, or a comment.

Molecule,gsp antag,TRPML1 ag,ClpP mod,Menin-MLL FL inh,TRPML1 blocker,gsp agonist
O=C(NCCCCNC(=O)c1ccco1)c1ccco1,2%,0.9,-3.9%,-3.5,1,4%
C=CCNC(=S)Nc1sc2c(c1C(=O)OCC)CCN(C(=O)OCC)C2,-2%,2.1,48%,1.4,1,16%
CC(=O)N1c2ccc(S(=O)(=O)NCC3CCC(C(=O)N4CCCCC4)CC3)cc2CC1C (centres undefined),-14%,-0.7,-1.4%,-2.0,-6,13%
O=C(Cn1cnc2ccccc21)OCC(=O)N1CCCc2ccccc21,-33%,-0.6,0.3%,5.2,-3,-1%
CS(=O)(=O)N(CC(=O)N1CCN(c2ccc(F)cc2)CC1)c1cccc(Cl)c1,-10%,0.3,-3.1%,1.7,-2,?
O=C(CCn1nc(-c2ccc(Cl)cc2)ccc1=O)N1CCN(c2ccccn2)CC1,-4%,-0.6,-6.1%,3.8,-13,17%
Cc1ccc(-n2ncc3c2CCCC3NC(=O)CCc2cnn(C)c2)cc1C (centres undefined),10%,-0.6,-0.4%,nt,-10,8%[15.4 µM]
COc1ccc2c(c1)SC1=NCCS(=O)(=O)N12,12%,1.6,-0.7%,2.2,-12,?
CN1OC[C@@H]2CN(S(=O)(=O)c3cccc4ccccc34)[C@H](c3ccc(-c4ccccc4)cc3)C[C@@H]21,nt,0.8,1.9%,nt,6,-67%[inhibitor]
CC1(C)CC(=O)c2sc(NC(=O)C(C)(C)C)nc2C1,4%,-0.1,nt,-4.0,-16,26%
CCCN1CCC(=O)N([C@H](CN=[N+]=[N-])Cc2ccccc2)CC1,7%,-0.1&-0.3,-8.0%&-16%,2.4,5,nt
CC(NC(=O)CSc1nc2sc3c(c2c(=O)n1-c1ccccc1)CCCC3)c1ccccc1 (centres undefined),23%,1.7,-18%,-1.0,6,-60%
CC(C)CNC1CCS(=O)(=O)C1 (centres undefined),20%,nt,1.3%,1.4,nt,?
Cc1ccc(NC(=O)c2ccc(CN3CC(=O)N4CCCCC4C3=O)cc2)cc1 (centres undefined),nt,1.1,0.9%,nt,21,nt
CCC1(C(=O)OC)NC(c2ccccc2OC)C2C(=O)N(C)C(=O)C21 (centres undefined),16%,-0.9,4.0%,-3.8,-2,0%
CCc1ccccc1Nc1nn2c(=O)c3ccc(C(=O)NC(C)C)cc3nc2s1,nt,0.7,-1.9%,nt,35,nt
O=C(CCN1CCOCC1)NCC1COc2ccccc2O1 (centres undefined),9%,-0.2,-23%,2.7,11,0%
O=C(NCCCN1CCOCC1)c1ccco1,0%,-0.3,0.6%,-0.5,-13,12%
CCCCCNc1nc(N2CCCC2)c2c(c1C#N)CCN(C)C2,10%,0.0,-14%,0.9,8,0%
Cc1cccc2nc(CNc3ccc(F)cc3)cn12,9%,-0.2,-23%,-1.8,-8,-11%
CC(C)CC(C(=O)NC1CCCCC1)N(Cc1cccs1)C(=O)c1snc(C(N)=O)c1N (centres undefined),-17%,0.3,-18%,4.2,-11,-45%[inhibitor]
Nc1nc(-c2ccc3ccccc3c2)c(C2(O)C(=O)Nc3c(Br)cc(F)cc32)s1 (centres undefined),4%,-0.1,3.1%,-1.4,1,-51%[inhibitor]
Cc1ccc(-c2cc(C(=O)N3CCN(c4ccc(O)cc4)CC3)c3ccccc3n2)cc1,-18%,-0.5,-14%,nt,-3,-1%
CCc1cc(=O)oc2c(C)c(OS(C)(=O)=O)ccc12,1%,1.5,?,nt,-5,-1%
O=C(NCCc1ccccc1)c1coc(=O)c(Br)c1,-5%,1.2,nt,1.0,47,24%
COC(=O)C(C)NC(=O)C1CCCN1S(=O)(=O)c1cc(C)c(Cl)cc1C (centres undefined),10%,0.9,0.5%,0.9,16,11%
CCCCC[C@@H]1C=C(C(=O)OCC)[C@H](c2ccccc2)N1S(=O)(=O)c1ccc(C)cc1,nt,1.9,-13%,nt,36,nt
Cc1ccc(C(=O)Nc2cc(-c3nc4cc(Cl)ccc4o3)ccc2C)c(C)c1,nt,-0.4,-0.1%,nt,10,nt
CCCN(CCC)CCCNC(=S)Nc1ccc2nc(N3CCN(CC)CC3)cc(C)c2c1,-1%,0.0,14%,-1.6,-8,?
COCCCNC(=S)NNC(=O)c1ccccc1Br,6%,-0.4,nt,4.5,6,-17%[15.4 µM]
O=C(NS(=O)(=O)Nc1ccc(Cl)cc1)c1c[nH]c2ccccc12,-3%,0.2,0.3%,-3.6,42,9%
C=CCn1c(CNC(=O)c2ccccc2F)nnc1SCC(=O)NC(C)c1ccccc1 (centres undefined),nt,-0.6,nt,-1.6,-7,-2%[15.4 µM]
COc1cc(C(=O)Sc2ccc(Cl)cc2)cc(OC)c1OC,-2%,3.7,-14%,-0.3,-8,-3%
COc1cc(/C=C2/OC(=O)c3cc([N+](=O)[O-])ccc32)cc(OC)c1OC,13%,0.9,-0.2%,nt,8,8%
CC(C(=O)Nc1ccc(O)cc1C(=O)O)N1C(=O)/C(=C\c2cccs2)SC1=S (centres undefined),-18%,2.2,0.5%,nt,7,-42%[inhibitor]
COC(=O)COC(=O)c1ccccc1NC(=O)c1ccccc1,-17%,0.8,-5.1%,9.2,3,-74%[inhibitor]
COc1ccc(Cl)cc1NS(=O)(=O)c1cccc(C(=O)NC2CCN(Cc3ccccc3)CC2)c1,-17%,1.0,-2.1%,nt,-9,9%
CSc1nnc(-c2ccc(Br)s2)n1C,-3%,0.1,-0.4%,0.1,36,-24%[15.4 µM]
O=C1[C@@H]2Cc3c([nH]c4ccccc34)CN2C(=O)CN1CCCO,11%,nt,1.4%,2.4,nt,-44%[inhibitor]
CC(C)CC(=O)NC(=S)Nc1ccccn1,10%,-0.7,2.8%,3.8,-14,?
Oc1ccc(Cl)cc1CNc1cnc2ccccc2c1,?,0.5,4.0%,0.6,-6,-24%
O=c1cc(CN(Cc2ccccc2)Cc2ccccc2)c2c(ccc3ccccc32)o1,nt,-0.2,-17%,nt,18,nt
Cc1nnc(SCCC#N)n(CCC#N)c1=O,2%,-0.1,3.5%,3.5,2,-114%[inhibitor]
CC(Oc1ccc(Br)cc1)C(=O)Nc1nnc(C2CC2)s1 (centres undefined),-5%,1.1,-2.1%,nt,8,6%
CCc1ccc([C@H]2C(C(=O)O)=C[C@@H](CC3CCCC3)N2S(=O)(=O)c2ccc(C)cc2)cc1,-9%,1.0,-2.3%,nt,22,nt
c1csc(-c2csc3ncnc(NCCCN4CCOCC4)c23)c1,0%,1.6,-0.6%,2.2,12,27%
CCOC(=O)Cn1nc(-c2ccccc2)c2ccccc2c1=O,10%,0.5,-1.7%,-1.3,13,-14%
CCNC(=O)c1ccc(=O)n(Cc2ccc(Cl)cc2Cl)c1,-4%,0.7,nt,nt,-6,?
C=CCOc1ccc(/C=N/NC(=O)C(C)Sc2ccccn2)cc1OCC (centres undefined),-3%,1.3,-1.2%,-1.2,-12,49%
CC(C)CCOP(=O)(c1ccc(N(C)C)cc1)C(Nc1ccccc1)c1ccc(N(C)C)cc1 (centres undefined),-1%,0.2,-11%,2.9,6,-9%

The listing continues:
Molecule,gsp antag,TRPML1 ag,ClpP mod,Menin-MLL FL inh,TRPML1 blocker,gsp agonist
Cc1oc(-c2ccccc2F)nc1CS(=O)(=O)CC(=O)N1CCN(c2ccc(Cl)cc2)CC1,nt,2.4,-12%,nt,49,nt
COc1ccc(OC)c(C(=O)Cn2cnc3ccccc3c2=O)c1,-11%,0.3,nt,0.1,2,-9%[15.4 µM]
CCN=C1S/C(=C\c2cc(Br)c(O)c(OC)c2)C(=O)N1CC,21%,2.8,0.7%,?,2,-64%[inhibitor]
O=C(CSc1nccc(=O)[nH]1)N1CCOCC1,7%,0.0,0.1%,4.6,-5,-11%
COCCNC(=S)Nc1ccc2nc(N3CCCC3)cc(C)c2c1,6%,1.0,-12%,5.6,-15,?
CCN(CCCNC(=O)c1cc2cc3ccc(OC)cc3nc2s1)c1ccccc1,nt,3.0,?,nt,26,nt
CSc1ccccc1C(=O)NC(C)c1ccc(-n2ccnc2)cc1 (centres undefined),-4%,-0.2,-1.4%,nt,8,-13%
Cc1cccc(NC(=O)CCS(=O)(=O)c2ccccc2)n1,2%,1.8,nt,-4.7,28,-25%
Cc1ccnc(NC(=O)c2ccc(S(=O)(=O)N3CCCCCC3)cc2)c1,-1%,-0.5,-18%,nt,5,0%
Cc1csc(NC(=O)CSc2nc3ccccc3s2)n1,4%,3.6,-0.8%,3.6,-10,-42%[inhibitor]
O=C(NCc1nnc(SCC(=O)N2CCCc3ccccc32)o1)c1ccco1,-3%,3.3,-0.1%,-0.1,14,-2%
O=C(CN(C(=O)CCC(=O)Nc1nccs1)c1ccc2c(c1)OCCO2)NCc1ccco1,5%,-0.1,0.6%,3.1,9,-1%
Cc1cc(C)c(S(=O)(=O)NCCCn2ccnc2)cc1C,3%,-0.5,1.0%,-2.5,-9,4%[15.4 µM]
CCN1C(=O)/C(=C/c2ccc(N3CCCC3)cc2)NC1=S,?,64*,0.8%,?,-16,-67%[inhibitor]
CCc1ccc(NC(=O)CSc2nc3ccsc3c(=O)n2CCCCCC(=O)O)cc1,?,-1.2,-1.8%,3.0,9,-3%[15.4 µM]
COc1ccc(CC(=O)Nc2cccc(Cl)c2C)cc1S(=O)(=O)N1CCOCC1,4%,1.0,0.3%,nt,5,-11%
Cc1cccc(C(=O)NCC2CCCO2)c1 (centres undefined),9%,-0.4,0.9%,-1.8,11,-24%
CCOc1ccc(N=C2SCC(=O)N2CC)cc1,2%,-0.6,-2.5%,-1.7,6,-4%[15.4 µM]
CC(=O)c1c(OC(=O)c2ccccc2Br)ccc2c(C)cc(=O)oc12,-5%,1.5,323%,-2.6,-2,-1%
COc1ccc2cc(C(=O)NCC3CCCO3)[nH]c2c1 (centres undefined),0%,0.5,nt,5.9,-13,4%
Cc1ccc(OCCC(=O)OCC(=O)N2c3ccccc3CC2C)cc1 (centres undefined),-4%,0.0,-0.3%,-7.8,17,4%
CC(C)CSc1nc(N)nc2c1ncn2C1OC(CO)C(O)C1O (centres undefined),-1%,0.6,nt,nt,17,24%

Sorted by count of non-hydrogen atoms (highest first): part of the list above.
Molecule,gsp antag,TRPML1 ag,ClpP mod,Menin-MLL FL inh,TRPML1 blocker,gsp agonist
Cc1cc(C)c(S(=O)(=O)NCCCn2ccnc2)cc1C,3%,-0.5,1.0%,-2.5,-9,4%[15.4 µM]
Cc1csc(NC(=O)CSc2nc3ccccc3s2)n1,4%,3.6,-0.8%,3.6,-10,-42%[inhibitor]
Cc1cccc(C(=O)NCC2CCCO2)c1 (centres undefined),9%,-0.4,0.9%,-1.8,11,-24%

Hits appear at their usual frequency; overall some 2.1% were active at least once.
